# MT1-MMP act inh – blocks activation of human MT1-MMP; HT1080 RFP-PRO-GFP cells, GFP/RFP ratio fluorescence, overnight; percent of plate control window, DMSO zero; GFP/RFP ratio change, % at 20 µM; hit rate 0.061% among 360,000; AID 651647;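 active means GFP/RFP ratio change of at least 30% with cell ATP level not reduced by more than half and red fluorescence within 50% of control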; further: strong numbers were not always called active
#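 Compound: 20 µM single dose, 1% DMSO / System: HT1080 RFP-PRO-GFP cells / Controls: DMSO and RFP-L50D-GFP cell wells / Read-out basis: GFP/RFP fluorescence ratio / Schedule: overnight compound exposure at 37 °C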
# HIV Env fusion – blocks HIV Env-driven cell-cell fusion | HeLa-JRFL Env/CEM21 cell fusion, luciferase | inhibition, % at 12.3 µM | hit rate 1.1% among 360,000 | AID 651610;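 active means mean replicate inhibition score of at least 50 and every replicate individually at or above 50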;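 further: 0% = plate neutral controls and 100% = maraviroc near 300 nM; one replicate is shown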
# Rce1 inh – inhibitors of yeast Ras-converting enzyme; Q03530; yeast membranes, quenched prenylated peptide cleavage fluorescence; hit rate 0.27% among 290,000; AID 2563; calls only;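 active means fall in fluorescence gain of 50% or more versus controls, with final raw signal at or below 3038400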;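 further: plate controls were neutral control wells for no effect and wells lacking membranes for full effect; tested at 10 µM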
# Target sequence (Q03530 whole entry, looked up): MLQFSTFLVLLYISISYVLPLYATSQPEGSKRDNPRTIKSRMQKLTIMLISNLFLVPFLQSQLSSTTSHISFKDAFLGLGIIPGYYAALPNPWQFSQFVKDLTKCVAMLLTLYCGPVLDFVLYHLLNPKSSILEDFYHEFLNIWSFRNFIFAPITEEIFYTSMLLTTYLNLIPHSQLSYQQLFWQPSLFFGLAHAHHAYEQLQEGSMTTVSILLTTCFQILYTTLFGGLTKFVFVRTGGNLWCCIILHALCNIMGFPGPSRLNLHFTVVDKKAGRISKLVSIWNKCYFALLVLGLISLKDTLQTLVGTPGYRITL
# Yeast UUG start – alters start codon recognition fidelity in yeast. activity score, % at 18.7 µM. S. cerevisiae UUG-firefly luciferase reporter, luminescence/redox ratio. hit rate 0.13% among 350,000;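 active means replicate mean at a twofold rise or more, about +100% in these data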;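 further: firefly luciferase made from a UUG start codon reports start codon fidelity; reporter light over untreated wells divided by growth signal over untreated wells; some hits fall short of that in this replicate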
# PABP FP inh – PABP-poly(A) binding inhibition; AID 2014; hit rate 1% among 290,000; PABP-poly(A) RNA binding, fluorescence polarization; P11940; inhibition, % at 35 µM;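 active means 50% or more with normal probe brightness, or confirmed in later tests; about a fifth of its hits are not listed in these tables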;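 further: calls also rest on retests at 20 µM and on dose response follow-up; controls were probe without protein and protein plus probe with vehicle; some compounds called inactive have numbers as strong as hits; many hits fall short of the cut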
# Target sequence (P11940 whole entry, looked up): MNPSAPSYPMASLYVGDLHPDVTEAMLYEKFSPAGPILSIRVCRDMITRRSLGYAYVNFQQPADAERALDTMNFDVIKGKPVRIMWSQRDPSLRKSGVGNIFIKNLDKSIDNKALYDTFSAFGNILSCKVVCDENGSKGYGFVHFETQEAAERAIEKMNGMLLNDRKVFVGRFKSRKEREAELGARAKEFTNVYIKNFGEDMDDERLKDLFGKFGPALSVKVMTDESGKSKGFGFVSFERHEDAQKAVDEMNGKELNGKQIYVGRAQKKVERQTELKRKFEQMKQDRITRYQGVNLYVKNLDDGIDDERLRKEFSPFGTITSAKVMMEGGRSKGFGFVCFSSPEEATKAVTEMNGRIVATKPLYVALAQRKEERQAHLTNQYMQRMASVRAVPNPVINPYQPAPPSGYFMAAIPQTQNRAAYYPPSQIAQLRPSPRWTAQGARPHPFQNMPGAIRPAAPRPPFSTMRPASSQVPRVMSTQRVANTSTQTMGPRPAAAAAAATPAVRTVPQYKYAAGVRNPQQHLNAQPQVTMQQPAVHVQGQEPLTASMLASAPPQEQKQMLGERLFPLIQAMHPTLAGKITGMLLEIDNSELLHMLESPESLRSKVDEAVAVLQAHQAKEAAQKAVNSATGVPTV
# eIF4H inh – inhibitors of RNA binding by human eIF4H; Q15056; eIF4H fluorescence polarization binding assay; inhibition, % at 35 µM; hit rate 0.94% among 290,000;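 active means 50% or more with normal probe brightness, or confirmed in later tests; about a fifth of its hits are not listed in these tables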;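 further: calls also rest on retests at 20 µM and on dose response follow-up; 0% = protein and probe with vehicle and 100% = probe without protein; strong numbers were not always called active; many hits fall short of the cut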
# CSC inhib – cancer stem cell inhibition. cancer stem cell-like cells viability, luminescence. hit rate 1.1% among 300,000. inhibition, % at 7.5 µM;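 active means mean at 75% or more and at least half the replicates too; tested in HMLE shEcad cells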;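 further: 0% = median of negative and 100% = median of positive control wells; the first replicate is given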
# eIF4H inh retest – second read-out of eIF4H inh, no call of its own (marks repeat the call); inhibition, %; compound at 20 µM; confirmation average;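 mean of two retest wells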
# PABP FP inh retest – also measured in PABP FP inh; calls as there; inhibition, %; compound at 20 µM; confirmation repeats;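 mean of two retest wells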
# MT1-MMP act inh RFP – further read-out of MT1-MMP act inh, marked with its call; RFP signal change, %; measured here: RFP expression control read;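 0 = vehicle wells; hits needed this value within 50% of zero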
# An asterisk follows results filed as active; i = inactive; · = no result given.
SMILES,MT1-MMP act inh,MT1-MMP act inh RFP,HIV Env fusion,Rce1 inh,Yeast UUG start,PABP FP inh,eIF4H inh,CSC inhib,others
Cc1ccc(Cl)cc1NC(=O)CSc1nncn1-c1ccccn1,1,1,-8,i,-2,0,-2,-4,
CCCC(CCC)C(=O)Nc1cccc(C(=O)O)c1,1,1,·,i,·,4,-12,-9,
Cc1ccc(NC(=O)CCC(=O)N/N=C/c2coc3ccccc3c2=O)cc1,-11,-1,-13,i,·,7,-4,-2,
CCn1ncc(C2=NOC(C(=O)Nc3cccc(O)c3)C2)c1C (stereo unspecified),0,0,-1,i,-10,4,-2,2,
O=C(N/N=C/c1ccc(OCC(=O)N2CCCC2)cc1)C(=O)NC1CC1,1,2,15,i,-16,8,-5,-21,
Cc1ccc(N(C(=O)CCCC(=O)Nc2ccccn2)C(C(=O)NC2CCCC2)c2ccc(O)cc2)cc1C (stereo unspecified),-6,-4,15,·,-10,1,-1,-1,
O=C(C/C=N\OCc1c(Cl)cccc1Cl)Oc1ccc(Cl)cc1Cl,-3,2,·,i,5,-11,-2,-22,
N#C/C(=C\c1ccncc1)c1nc2ccccc2c(=O)[nH]1,-9,2,13,i,·,12,9,11,
COC(=O)C1(Cc2ccc(O)cc2)OC(=O)C(O)=C1c1ccc(O)cc1 (stereo unspecified),0,3,·,i,1,32,32,-7,
Cc1ccc(NC(=O)Cc2noc3ccccc23)c(C)c1,6,9,-29,i,·,5,-5,-7,
Cc1ccccc1C(=O)NCC(=O)OC(C)C(=O)Nc1ccnn1C(C)C (stereo unspecified),2,5,-5,i,-24,·,·,-2,
CCOC(=O)C1CCCN(Cc2ccc(OC)c(OCc3ccccc3)c2)C1 (stereo unspecified),1,-2,13,i,-2,9,3,-8,
CC(C)CCNC(=O)C1c2ccccc2Oc2ccccc21,1,-3,1,i,-2,8,1,-1,
O=C(Nc1ccncc1)c1cc(C2CCCCN2C(=O)CCCc2ccccc2)on1 (stereo unspecified),-3,-19,7,·,-12,·,·,·,
O=C(CNc1ccccc1F)Nc1cccc2ccccc12,2,3,-12,·,-12,3,16,-5,

# The list goes on; it opens with the 6 that closed the last part.
SMILES,MT1-MMP act inh,MT1-MMP act inh RFP,HIV Env fusion,Rce1 inh,Yeast UUG start,PABP FP inh,eIF4H inh,CSC inhib,others
Cc1ccc(NC(=O)Cc2noc3ccccc23)c(C)c1,6,9,-29,i,·,5,-5,-7,
Cc1ccccc1C(=O)NCC(=O)OC(C)C(=O)Nc1ccnn1C(C)C (stereo unspecified),2,5,-5,i,-24,·,·,-2,
CCOC(=O)C1CCCN(Cc2ccc(OC)c(OCc3ccccc3)c2)C1 (stereo unspecified),1,-2,13,i,-2,9,3,-8,
CC(C)CCNC(=O)C1c2ccccc2Oc2ccccc21,1,-3,1,i,-2,8,1,-1,
O=C(Nc1ccncc1)c1cc(C2CCCCN2C(=O)CCCc2ccccc2)on1 (stereo unspecified),-3,-19,7,·,-12,·,·,·,
O=C(CNc1ccccc1F)Nc1cccc2ccccc12,2,3,-12,·,-12,3,16,-5,
CCOC(=O)CSc1nc2cc(C(=O)NCc3ccco3)ccc2c(=O)n1-c1ccc(F)cc1,4,8,·,i,·,-4,13,0,
CCOC(=O)Cn1c2[n+](c3ccccc31)CC(O)CS2 (stereo unspecified),-2,-1,·,i,-6,59,-10,34,eIF4H inh retest=-2;PABP FP inh retest=4
CCN(CC)S(=O)(=O)c1ccc(OC)c(NC(=O)c2cccs2)c1,1,2,19,i,-12,-6,2,-6,
C=C(C)Cn1c(N2CCCC2)nc2c1c(=O)n(C)c(=O)n2C,-1,-1,12,i,-32,-1,-1,-17,
COc1cc2cc(CN(C(=O)NC3CCCCC3)C3CCCC3)c(=O)[nH]c2cc1OC,·,·,·,i,·,0,4,-12,
Cc1cccc(OCC(O)CN2CC3(C)CC2CC(C)(C)C3)c1 (stereo unspecified),18,-5,3,i,·,-7,-3,4,
CC(C)(C)c1ccc(C(=O)NCCC(=O)N2CCCC2)cc1,3,5,-37,i,-14,-1,-7,8,
CC(C)CN(C(=O)CCCOc1ccc(Cl)cc1Cl)c1c(N)n(Cc2ccccc2)c(=O)[nH]c1=O,-12,-11,6,i,3,·,·,·,
O=c1cc(NCc2ccc3c(c2)OCO3)[nH]c(=O)n1-c1ccc(Cl)cc1,-5,-3,0,·,-16,-5,-4,8,
COc1ccc(OC)c(N(CC(=O)N2CCN(c3cc(Cl)ccc3C)CC2)S(C)(=O)=O)c1,7,0,·,i,0,-4,-13,-2,
CC(/C=N/n1c(-c2ccccn2)n[nH]c1=S)=C\c1ccccc1,2,2,-8,i,-23,11,7,3,
O=C1CC(c2ccco2)Cc2nc(Nc3ccc(F)cc3)ncc21 (stereo unspecified),3,2,·,i,-1,4,2,20,
O=C(CCc1ccccc1)NNC(=O)c1ccccc1Br,2,8,-2,i,-24,0,-14,-5,
COc1ccc(-c2cc(=O)oc3c(C)c(OCC(=O)NCCCn4ccnc4)ccc23)cc1,-1,-1,·,i,-14,-10,-5,31,
COc1ccccc1N1CCN(/N=C/c2cc(OC)c(OC(C)=O)c(OC)c2)CC1,2,-1,6,i,1,8,15,-13,
O=C(Cc1ccc(-n2c(=O)c3sccc3n(Cc3ccc(F)cc3)c2=O)cc1)NCc1ccco1,2,0,0,i,1,-12,-6,5,
COc1ccc(/C=C/C(=O)c2ccc3c(c2)OCO3)c(OC)c1,-8,-6,-39,i,-28,3,17,-2,
CC(C)CNC(=O)C(=O)NC1CCCC1,-5,6,·,i,-19,·,·,-10,
CCOC(=O)C(C(C)=O)c1nc(C)nc2c1nnn2Cc1ccccc1Cl (stereo unspecified),-2,-2,-20,i,-12,-2,1,·,
Cc1cc(C)c(C(N)=O)c(Nc2cccc(Cl)c2C)n1,9,3,·,i,-7,-8,-1,-12,
O=S(=O)(O)c1ccc(Cl)c(Cl)c1,-4,4,-2,·,-8,·,·,·,
CC(C)c1ccc(NC(=O)NCc2ccccn2)cc1,0,-1,-18,i,-20,-8,-3,6,
Cc1cc(C(=O)C(=O)N(C)C)c(C)n1-c1ccc(Cl)cc1,1,0,2,i,9,5,-1,-10,
COCCCn1c(SCC(=O)NC2CCCCC2)nnc1-c1ccncc1,-1,0,-28,i,-16,-5,0,-18,
O=C(c1ccc(-c2nnc(-c3ccccc3)o2)cc1)N1CCCCCC1,4,0,-46,i,-31,1,-2,45,
O=C(NCC1CCCO1)C(c1ccc(F)cc1)N(CCCN1CCOCC1)C(=O)c1ccc(-c2ccccc2)[nH]1 (stereo unspecified),·,·,-72,·,·,29,-9,-3,
COc1ccc(/C(C)=N\NC(=O)CSc2nnc(C)s2)cc1,-2,-2,7,i,-24,12,-8,-13,
O=C1CC(c2ccccc2)CC(O)=C1C=Nc1ccccc1Cl (stereo unspecified),1,2,-26,i,-2,5,4,9,
Cc1cc(C(=O)NCc2cccs2)c(C)o1,-5,4,-27,i,·,7,4,21,
COc1ccc(N2CCN(C(=O)COc3ccc4c(C)cc(=O)oc4c3)CC2)cc1,-2,-5,14,i,-2,10,-5,-7,
CCCNC(=O)C1(C)CCN(C(=O)c2ccc(OC(F)F)cc2)C1 (stereo unspecified),1,-2,-13,·,-5,·,·,·,
CCOc1ccccc1CNC(=O)C1CCC(=O)N1C(C)C (stereo unspecified),-1,1,1,i,-17,-2,-1,-2,
Cn1nc(C(F)(F)F)c(-c2ccccc2)c1NC(=O)c1nccnc1C(=O)O,1,6,-58,i,0,2,-1,4,
CCn1c(O)c(N=NC(=O)CNC(=O)/C=C/c2ccccc2)c2ccccc21,5,1,-2,i,-17,5,-11,-9,
C[C@@H](C(=O)Nc1ccc2ccccc2c1)[C@@H]1C[C@@]1(C)[C@@H](NC(=O)c1cccnc1)c1ccccc1,-3,1,5,i,-22,-1,2,4,
COc1ccc(OC)c(S(=O)(=O)N2CCC3(CC2)OCCN3S(=O)(=O)c2ccccc2)c1,-4,-3,8,i,-10,·,·,-7,
COc1ccc(-c2ccc(SCC(=O)NCc3ccc4c(c3)OCO4)nn2)cc1OC,-4,-6,4,i,·,5,-5,-2,
O=C(Nc1ccccc1)N1N=C(c2cccs2)CC1c1cccs1 (stereo unspecified),2,-3,-23,i,·,-17,-4,-21,
CC(C)=CCc1c(C)nc2ccccc2c1C(=O)O,3,3,·,i,-17,15,9,3,
CCN(CC)S(=O)(=O)c1cccc(C(=O)Oc2cccnc2)c1,-1,4,3,i,2,-4,9,8,
CC(C)CC(=O)NC(=S)Nc1ccc(N2CCOCC2)c(Cl)c1,1,-2,13,i,·,-2,-7,-9,
O=C(NC1CCCC1)C(c1ccccc1)N(Cc1ccccc1)C(=O)c1csnn1 (stereo unspecified),-2,2,14,i,-26,11,0,-17,
CCOC(=O)N1CCC(Nc2c(N3CCN(c4cc(Cl)ccc4C)CC3)c(=O)c2=O)CC1,-1,-20,21,i,-10,-5,1,5,
CCOC(=O)C1C(c2ccc(C(=O)O)cc2)NC(=O)NC1(O)C(F)(F)F (stereo unspecified),1,6,-1,i,-5,3,-1,-12,
O=C(CNCC1CCCO1)N1CCCCCC1 (stereo unspecified),2,-4,4,i,·,1,17,4,
CCCCN(CCCNC(=O)Cn1ncc2ccsc2c1=O)Cc1ccccc1,5,7,3,i,-11,0,4,-1,
COC(=O)c1ccc2c(=O)n(Cc3ccco3)c(SCC(=O)Nc3cc(C)on3)nc2c1,1,3,-2,i,·,-12,-8,-4,
CCOCCCNC(=O)C(NC(=O)Cc1cccs1)c1ccc(Cl)cc1 (stereo unspecified),0,5,3,i,·,6,-6,-11,
CCc1cccc(NC2c3ccccc3C(=O)N2c2cccnc2)c1 (stereo unspecified),3,-7,18,i,-20,-10,1,-6,
Cc1ccc(-c2cc(C(=O)N3CCOCC3)c3cc(C)ccc3n2)cc1,5,-1,9,i,0,4,-8,-20,
CCC(=O)c1ccc(OCC(=O)N(CC)CC(=O)Nc2ccccc2OC)cc1,2,0,-3,·,-4,·,·,·,
CCOC(=S)SCc1cn2ccc(C)cc2n1,3,7,·,i,-26,31,45,-10,
O=C(NNC(=O)c1ccc(-c2ccccc2)cc1)c1ccccc1,4,2,-35,i,-20,-8,-3,-3,
COCCn1nnnc1CN1CCC(Cc2ccccc2)CC1,7,4,-32,i,5,-8,-3,23,
COc1ccc(NC(=O)CN(C)S(=O)(=O)c2cccs2)cc1,-3,-4,·,i,-7,-10,-5,0,
COc1ccc(NC(=O)c2ccccn2)cc1OC,1,4,-23,i,·,-3,32,-6,
CCOc1ccc(-c2cc(C(=O)Nc3ccc4c(c3)OCCO4)c3ccccc3n2)cc1,-4,-7,·,i,-16,2,-8,51,
Cc1ccc(S(=O)(=O)N2C[C@H]3C(=O)C[C@@H](c4ccc(Cl)cc4)N(S(=O)(=O)c4ccccc4C)[C@H]3C[C@H]2c2ccc(Cl)cc2)cc1,-1,-2,-51,·,-7,·,·,·,
CCCNC(=O)c1cc2c(C(F)(F)F)nn(C)c2s1,1,0,·,i,-10,-5,-16,-8,
COc1ccccc1N1C(=O)c2ccc(C(=O)Nc3cccc(C(C)=O)c3)cc2C1=O,-1,1,7,i,-7,2,-6,6,
CCCOc1ccccc1OCC(=O)Nc1ccc(S(=O)(=O)N2CCCCC2)cc1,0,-6,17,i,-5,·,·,0,
COc1ccc(N(Cc2ccccc2)S(=O)(=O)c2cccc(C(=O)O)c2)cc1,3,3,11,i,-19,6,3,5,
COc1ccc(NC(=O)[C@@H]2CCCN2C(=O)[C@@H]2Cc3ccccc3CN2C(=O)OC(C)(C)C)cc1,-4,0,-4,i,·,-5,-3,29,

# Source: PubChem BioAssay

# An excerpt; rates above refer to the full screens.
